YjeE inh: inhibitors of E. coli YjeE (TsaE); P0AF67; purified YjeE, fluorescence polarisation of a bound ADP probe; Potency, µM; 0.05% of 71,000 active; AID 605; active = well fitted falling curve; inconclusive = weaker or top-dose-only fall, or a rising curve; inactive = flat or poorly fitted curve;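 further: top concentration of the series not given in the record; excess ADP was the control for the full effect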
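Fluorescence polarization of a BODIPY Texas Red–ADP probe (2 uM) bound to purified YjeE (10 uM) was read after 15 min room-temperature incubation with compounds. Loss of polarization marks inhibitors; ADP serves as titrated control.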
PK Bst: modulators of Bacillus stearothermophilus pyruvate kinase; Potency, µM; partly purified Bacillus stearothermophilus pyruvate kinase, luminescence ATP production; ribose 5-phosphate activator present at AC10; 1.2% of 51,000 active; in the data active means potency below about 11 µM; inconclusive means mostly about 12 µM to 25 µM; inactive means weaker than that;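 the screen sought inhibitors and activators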;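 further: potency means the concentration at half of the fitted maximal effect; scaled between full activation by ribose 5 phosphate and full inhibition by luteolin; about four in five hits inhibit and the cells do not say which; series up to 57 µM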
An asterisk follows results filed as active; i = inactive; ? = inconclusive; · = no result given.

cpd | molecule | YjeE inh | PK Bst
1 | O=S1(=O)CC(NCc2ccccc2)C(Nc2ccccc2)C1 (stereo not given) | i | >57
2 | CCN1C(=O)CSC1=NC1C2CC3CC(C2)CC1C3 (stereo not given) | i | ·
3 | C[C@@H](CCc1ccccc1)NC[C@H](O)c1ccc(O)c(C(N)=O)c1 | i | ·
4 | COC(=O)CCN(C(C)=O)c1ccc(N)cc1 | i | >57
5 | Cc1cccc(NC(=O)CSc2nnc(-c3ccccc3)n2N)c1 | i | >57
6 | COc1ccc(S(=O)(=O)Cc2ccc(C(=O)NCc3cccnc3)o2)cc1 | i | ·
7 | O=C(c1cc2nc(-c3ccccc3)cc(C(F)(F)F)n2n1)N1CCCC1 | i | >57
8 | O=C(O)/C(=C\c1ccccc1)c1ccccc1 | i | ·
9 | CC(=O)N1CCC[C@@]2(CCN(C(=O)Nc3cccc(C#N)c3)C2)C1 | i | ·
10 | Cc1ccccc1C(=O)Nc1ccc(S(=O)(=O)N2CCN(C)CC2)cc1 | i | >57
11 | Nc1nc2n(n1)C(c1ccc(Cl)cc1)CC(c1ccc(F)cc1)N2 (stereo not given) | i | ·
12 | Cc1cc(NC(=O)CSc2nc(C(C)C)nc3c2c(=O)n(C)c(=O)n3C)no1 | i | ·
13 | Oc1ccc(-c2nnc(-c3ccc(O)cc3)nn2)cc1 | i | ·
14 | CCc1c(C(=O)Nc2ncn(Cc3cccc(C)c3)n2)csc1C | i | >57
15 | COC(=O)[C@@H]1C[C@H]1[C@@H](NC(=O)c1ccccc1)c1ccccc1 | i | ·
16 | CC(C)CC(=O)Nc1ccccc1N1CCOCC1 | i | >57
17 | CCC(c1nnnn1Cc1ccc2c(c1)OCO2)N1CCN(c2ccccc2)CC1 (stereo not given) | i | >57
18 | O=C(Nc1ccc2nc(-c3ccco3)[nH]c2c1)c1ccco1 | i | 10.3*
19 | COC(=O)c1ccc(Cn2cc(Cl)cn2)cc1 | i | >57
20 | COc1ccc(S(=O)(=O)N2CCCN(CC(=O)Nc3ccc(OC)c(Cl)c3)CC2)cc1 | i | >57
21 | O=C(CCN1CCc2ccccc2C1)Nc1ccccc1 | i | ·
22 | CCn1c(/C=N/n2cnnc2)nc2ccccc21 | i | ·
23 | O=C(CSc1ncccn1)c1ccccc1Br | i | >57
24 | Cc1ccc2cc(C(c3nnnn3C3CCCC3)N(Cc3cccnc3)Cc3ccco3)c(=O)[nH]c2c1 (stereo not given) | i | >57
25 | CCOC(=O)C1=C(C)NC(=O)CC1c1cc2c(cc1Br)OCO2 (stereo not given) | i | ·
26 | Cn1c(SCC(=O)c2ccc(F)cc2)nc2cccnc21 | i | >57
27 | NCCNC[C@H](O)CO | i | ·
28 | C=CCn1cnc2c(c1=O)c1nc3ccccc3nc1n2-c1ccccc1 | i | >57
29 | COc1ccc(-c2ccc(OC)cc2C(=O)O)cc1 | i | >57
30 | Cn1ncc(N=Cc2ccccc2O)c1C(=O)N1CCOCC1 | · | >25.6
31 | CCNc1nc(N2CCOCC2)nc(N(c2ccccc2)c2ccccc2)n1 | i | >57
32 | O=C(Nc1ccccc1)c1ccccc1OCC(O)CN1C(=O)c2ccccc2S1(=O)=O (stereo not given) | i | >57
33 | O=C1Nc2ccccc2SC(c2ccccc2)C1O (stereo not given) | i | >57
34 | COCCCNC(=O)Cn1nnc(-c2ccc(NC(=O)c3ccccc3OC)cc2)n1 | i | >57
35 | Cc1ccc(S(=O)(=O)N2CCOCC2)cc1C(=O)NCc1ccc(F)cc1 | i | >57
36 | CCS(=O)(=O)N1CCN(S(=O)(=O)c2ccc(F)cc2)CC1 | i | >57
37 | CC1(C)Cn2c(nnc2-c2cccc(O)c2)S1 | i | >57
38 | CC(=O)Nc1ccc(NC(=O)CN2CCCC(C)C2)c(Cl)c1 (stereo not given) | i | >57
39 | CCCc1nc2ccccc2c(C(=O)OCc2nnc(-c3cc(OC)c(OC)c(OC)c3)o2)c1CC | i | >57
40 | O=C(O)C(Cc1ccccc1)n1cnnn1 (stereo not given) | i | >57

In the list so far, 3 contain a COOH group.
cpd | molecule | YjeE inh | PK Bst
8 | O=C(O)/C(=C\c1ccccc1)c1ccccc1 | i | ·
29 | COc1ccc(-c2ccc(OC)cc2C(=O)O)cc1 | i | >57
40 | O=C(O)C(Cc1ccccc1)n1cnnn1 (stereo not given) | i | >57

(more compounds)
cpd | molecule | YjeE inh | PK Bst
41 | COc1ccccc1C(c1nnnn1Cc1ccccc1)N1CCN(c2nc3ccccc3s2)CC1 (stereo not given) | i | >57
42 | Cc1cc(C)nc(-n2nc(C)cc2NC(=O)c2ccc3c(c2)OCO3)n1 | i | ·
43 | CCCC(C)C(=O)Nc1ccc(Cl)cn1 (stereo not given) | i | >57
44 | C=Cn1nc(C)c2ccccc2c1=O | i | ·
45 | O=C(CSc1ncn[nH]1)c1ccc2c(c1)OCCO2 | i | >57
46 | Cc1ccc(OCC(=O)n2cnnc2N)c(C)c1 | i | >57
47 | CC(O)c1cccc(NC2=CC(=O)CC(C)(C)C2)c1 (stereo not given) | i | >57
48 | CCc1nnc(NC(=O)CSc2nnc(Cc3ccccc3)n2Cc2ccccc2)s1 | i | >57
49 | COc1ccc(-n2c(SCC(=O)Nc3ccc4c(c3)OCO4)nc3ccccc3c2=O)cc1 | i | >57
50 | COc1ccc(C(=O)N2CCC[C@@]3(CCN(Cc4cc(C(F)(F)F)cc(C(F)(F)F)c4)C3)C2)cc1 | i | ·
51 | O=C(O)C1C2C=CC(C2)C1C(=O)NCCc1ccncc1 (stereo not given) | i | >57
52 | O=C(CN1C(=O)C2C3C=CC(C3)C2C1=O)N1CC(=O)N(CCc2ccccc2)C(=O)C1 (stereo not given) | i | >57
53 | O=C(O)CCN1C(=O)C(=C2CCCCCC2)SC1=S | i | >57
54 | COc1cc(NC(=O)c2ccco2)c(OC)cc1NC(=O)CCC(=O)Nc1cc(C)ccc1C | i | >57
55 | COc1ccc(-c2nc3ccccc3c(=O)n2CCCN2CCOCC2)cc1 | i | >57
56 | Cc1ccc(-c2nnc(N3CCOCC3)c3ccccc23)cc1S(=O)(=O)NCC1CCCO1 (stereo not given) | i | ·
57 | COc1ccc(OC)c(NC(=O)CSc2nnc(CNc3ccc(F)cc3)o2)c1 | i | >57
58 | CCOC(=O)CNC(=O)CSc1nnc(Cn2c(=O)sc3ccccc32)n1C | i | ·
59 | N#Cc1nc(COc2ccc(F)cc2)oc1N1CCN(Cc2ccccc2)CC1 | i | >57
60 | O=c1c2cnn(-c3ccccc3)c2ncn1Cc1ccccc1 | i | >57
61 | Cc1ccc(Cn2ccc(NC(=O)c3cc(-c4cccc(Cl)c4)on3)n2)cc1 | i | >57
62 | OCCc1ccc(-c2ccc(Cl)cc2)o1 | i | >57
63 | COc1ccc(S(=O)(=O)Cc2ccc(C(=O)NCc3ccccn3)o2)cc1 | i | ·
64 | Cc1cc(C)c2nc(N3CCCN(C(=O)c4ccco4)CC3)c(C#N)cc2c1 | i | >57
65 | COc1ccc(Cl)cc1C(=O)Nn1c(C)nc2ccccc2c1=O | i | >57
66 | Cc1onc(-c2ccccc2Cl)c1C(=O)NCCCN1CCOCC1 | i | >57
67 | CCc1cccc2nc3c(c([Si](CC)(CC)CC)c12)Cn1c-3cccc1=O | i | ·
68 | CC[C@@H](Nc1ncnc2nc[nH]c12)C(=O)O | i | ·
69 | Cc1ccc(S(=O)(=O)Nc2ccccc2F)cc1C(=O)NCCCN1CCCC1=O | i | >57
70 | Cc1ccc(C2CC(=O)c3cnc(N4CC(C)CC(C)C4)nc3C2)cc1 (stereo not given) | i | >57
71 | COc1cccc(C(C(=O)NC(C)(C)C)N(C(=O)CCC(=O)Nc2cc(C)on2)C(C)C)c1OC (stereo not given) | i | >57
72 | O=C(O)CCCC(=O)NCCCc1ccccc1 | i | ·
73 | COc1ccc(S(=O)(=O)Nc2ccccc2OC)cc1C | i | >57
74 | COc1cc(NS(=O)(=O)c2cc(C)ccc2OC)c(OC)cc1Cl | i | >57
75 | CC(=O)c1c(C)nn(C(C)CC(=O)O)c1C (stereo not given) | i | >57
76 | COc1ccc(C2C(C(=O)N3CCN(c4ccc(OC)cc4)CC3)c3ccccc3C(=O)N2C)cc1 (stereo not given) | i | >57
77 | Cc1cc(C)c(C#N)c(SCC(=O)c2cccs2)n1 | i | ·
78 | Cc1cc2oc(C(=O)Nc3c(C)n(C)n(-c4ccccc4)c3=O)c(C)c2cc1C | i | >57
79 | NS(=O)(=O)c1ccc(N=C2C(=O)Nc3ccccc32)cc1 | i | ·
80 | CCOC(=O)c1cnn(-c2cc(C)nc3c(-c4ccccc4)cnn23)c1N | i | >57
81 | Cc1occc1C(=O)Nc1ccc(S(=O)(=O)N2CCN(C)CC2)cc1 | i | >57
82 | CC(C)CC1(C)NC(=O)NC1=O (stereo not given) | i | >57
83 | O=C(c1ccc(F)cc1F)N(Cc1ccccn1)Cc1ccco1 | i | >57
84 | CN(C)c1ncnc2ccc(-c3cccc(C#N)c3)cc12 | i | ·
85 | O=C1SC(c2ccccc2)=N/C1=C/c1ccco1 | i | >57
86 | CCOc1cc(-c2c(C)c(C)nc(N)c2C#N)ccc1O | i | >57
87 | O=C(CN(C1CCCCC1)S(=O)(=O)c1ccc(Cl)cc1)NCc1cccnc1 | i | ·
88 | CCOc1ccc2[nH]cc(C(=O)O)c(=O)c2c1 | i | >57
89 | CN(C)Cc1ccccc1-c1cncnc1NCc1cccs1 | i | ·
90 | COc1ccc(N2CCN(C(=O)c3ccc(C)cc3Cl)CC2)cc1 | i | ·
91 | O=C1C(=O)N(Cc2ccc(Cl)c(Cl)c2)c2ccccc21 | i | ·
92 | Cc1ccc(C)c(N2CCN(C(=O)C3CCN(c4nnc(N5CCCC5=O)s4)CC3)CC2)c1 | i | >57
93 | CCCc1cc(C(=O)NCCc2ccccc2)no1 | i | ·
94 | COc1ccc(NC(=O)Cn2cccc2)cc1Cl | i | >57
95 | CN1CCN(c2ncc3nc(-c4cccs4)c(=O)n(Cc4ccc(F)cc4)c3n2)CC1 | i | ·
96 | COC(=O)C(C(=O)N1CCN(C)CC1)C1CCCCCC1 (stereo not given) | i | >57
97 | CC[C@H]1CC[C@H]2[C@@H]3CC=C4C[C@H](OC(C)=O)[C@@H](N)C[C@@]4(C)[C@H]3CC[C@@]12C | i | ·
98 | Cc1cc(NC(=O)Cc2ccccc2)no1 | i | >57
99 | O=S(=O)(c1cccs1)N1CCN(c2ccccn2)CC1 | i | >57
100 | CCOC(=O)c1c(N)sn(-c2ccccc2C)c1=S | i | >57

Later entries
cpd | molecule | YjeE inh | PK Bst
101 | O=C(CN1C(=O)CSC1=O)Nc1ccc(N2CCOCC2)cc1 | i | >57
102 | Cc1cc(N2CCOCC2)nc2ccc(NC(=O)CCC(=O)N3CCC(C)CC3)cc12 | i | ·
103 | Cc1ccc(S(=O)(=O)NC(C)(C)CSc2nnc(N)s2)cc1 | i | ?
104 | Cn1c(-c2cccc(Br)c2)cnc1NCc1cccnc1 | i | >57
105 | O=C(Nc1cccc(F)c1)c1ccc(S(=O)(=O)N2CCCC2)cc1 | i | ·
106 | CCOC(=O)CS(=O)(=O)c1nc(-c2ccc(F)cc2)cc(C(F)(F)F)n1 | i | 5.46*
107 | NC(=O)C1CCN(C(=O)CN(c2cccc(C(F)(F)F)c2)S(=O)(=O)c2ccccc2)CC1 | i | ·
108 | Clc1cccc2sc(N3CCN(c4ccccc4)CC3)nc12 | i | >57
109 | CS(=O)(=O)c1cccc(C(=O)NCc2ccccc2)c1 | i | >57
110 | COc1cc(NC(=O)c2noc3c2CCC3)c(OC)cc1Cl | i | >57
111 | O=c1[nH]c(CSc2nnc(COc3ccccc3)n2-c2ccccc2)nc2ccccc12 | i | >57
112 | Cc1cccc(-n2c(SCc3cc(=O)n4ccsc4n3)nc3ccccc32)c1 | i | >57
113 | Cc1c(C(=O)NCC2COc3ccccc3O2)oc2ccc(S(=O)(=O)N3CCOCC3)cc12 (stereo not given) | i | >57
114 | O=C(Nc1ccon1)c1ccc(Cl)s1 | i | >57
115 | Cc1nc2cc(-c3cccc(F)c3)nn2c(C)c1CCC(=O)NC(C)CCc1ccco1 (stereo not given) | i | ·
116 | Nc1ccc2c(c1)-c1ccccc1S(=O)(=O)N2 | i | >57
117 | CCCc1cc(C(=O)OC)c(NC(=O)OCC)s1 | i | >57
118 | COCCn1c(=O)c(-c2ccc(Cl)cc2)nc2cnc(N3CCNCC3)nc21 | i | ·
119 | COc1cc(C2C(C#N)=C(N)Oc3cc(N(C)C)ccc32)cc2c1OCO2 (stereo not given) | i | >57
120 | O=C(Nc1cccnc1)c1c(F)c(F)c(F)c(F)c1F | i | >57

Entries above marked active in PK Bst:
cpd | molecule | YjeE inh | PK Bst
18 | O=C(Nc1ccc2nc(-c3ccco3)[nH]c2c1)c1ccco1 | i | 10.3*
106 | CCOC(=O)CS(=O)(=O)c1nc(-c2ccc(F)cc2)cc(C(F)(F)F)n1 | i | 5.46*

Other results
cpd | molecule | YjeE inh | PK Bst
121 | COc1ccc(CN(Cc2ccccn2)S(=O)(=O)c2ccc(-n3cnnn3)cc2)cc1 | i | >57
122 | Cc1cc(C)cc(NC2=NC3(CCCCC3)N=C(N)N2)c1 | i | ·
123 | Cc1ccc(S(=O)(=O)N2CCC(C(=O)N3CCN(Cc4ccccc4)CC3)CC2)cc1 | i | ·
124 | COC(=O)c1ccccc1S(=O)(=O)Nc1ccc(OC)nc1 | i | >57
125 | Cc1[nH]c2ccccc2c1C(=O)CN1CCSCC1 | i | >57
126 | COCCNS(=O)(=O)c1cc(OC)c(Cl)cc1Cl | i | ?
127 | CCOC(=O)C1=C(C)NC(C)=C(C(=O)OCC)C1c1ccccn1 | i | >57
128 | CCOC(=O)COn1c(=O)c(=O)n(O)c2ccccc21 | i | ·

A portion of the library; count on the stated rates, not on these rows.
